Screening results as filed in PubChem BioAssay.
Menin-MLL FL inh – qHTS Assay for Inhibitors Targeting the Menin-MLL Interaction in MLL Related Leukemias: Competition With Fluorescein Labeled MLL-derived Peptide; 290,000 tested, under 10 active; Fluorescence polarization, fluorescein-MLL peptide displacement from menin; AID 1766, 2009; FP activity change, % at 61.4 µM; inconclusive = falling polarisation curve, or a change in total fluorescence; inactive = total fluorescence flat and polarisation flat or rising; no compound was filed as active; the % refers to the polarisation; negative = inhibition;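 also: % of control where 0% means no effect; inhibitors lower the polarisation; unlabelled MLL peptide was the positive control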
Sfp inh – qHTS Assay for Inhibitors of Bacillus subtilis Sfp phosphopantetheinyl transferase (PPTase); 3.5% of 310,000 active; 4'-phosphopantetheinyl transferase ffp (Bacillus subtilis), Q9F4F7; AID 1490, 2009; Biochemical Sfp PPTase activity, qHTS; Potency, µM, inactives show max response, negative = inhibition, most hits filed as inhibitors; active = well fitted inhibition curve with a large enough effect; inconclusive = small, poorly fitted or top-dose-only effect, or another doubt; inactive = no such curve, though single readings can be large or run the other way;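 also: the enzyme is Sfp with the accession as filed and its product quenches rhodamine fluorescence; potency is read from the fitted curve at half-maximal effect; 0% = enzyme reaction without inhibitor and -100% = no enzyme wells; top concentration of the series not given in the record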
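Buffer: 50 mM Hepes-Na pH 7.6, 10 mM MgCl2, 0.01% Nonidet P-40, 0.01% BSA. Enzyme 15 nM, pre-exposed to compound 15 min; substrates then added and fluorescence change tracked over 30 min.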
Numbers without * were called inactive; ? = inconclusive; nt = not tested or not shown; & = joins results of further samples; [ ] = dose if it differs, or a comment. The list is partial. The share of hits here may be higher or lower than overall.

[1] N#Cc1ccccc1OCC(O)CNCCNC(=O)Nc1ccccc1 (stereo unspecified)
[2] C[C@H](CCC(=O)NCCS(=O)(=O)O)C1CC[C@H]2C3CC[C@@H]4C[C@H](O)CC[C@]4(C)C3C[C@H](O)[C@]12C (stereo partly specified)
[3] CC(C)=CCC[C@]1(C)[C@@H](CC=C(C)C)C[C@@]2(CC=C(C)C)C(=O)[C@]1(C(=O)C(C)C)C(=O)C(CC=C(C)C)=C2O
[4] CNCC(=O)NCC(=O)N[C@@H](Cc1ccccc1)C(=O)N[C@@H](CC(C)C)C(=O)O
[5] COc1ccc2[nH]cc(CCO)c2c1
[6] CN(C)C(=O)OC1=C(c2ccccc2)Sc2ccccc2-n2cccc21
[7] CCCCCCCCCCCCCCCC(=O)C1=C(O)C(CO)OC1=O (stereo unspecified)
[8] C[N+]1(Cc2ccccc2)CCC(C(=O)OCC2CCCC2)CC1 (stereo unspecified)

screen / no. | 1 | 2 | 3 | 4 | 5 | 6 | 7 | 8
Menin-MLL FL inh | nt | nt | nt | nt | nt | nt | nt | nt
Sfp inh | 4% | 2% | 13% | 5% | 10% | -16% | -8% | ?

[9] CCC(=O)NC1CCc2cccc(OC)c2C1 (stereo unspecified)
[10] C=C1CC[C@H](O)C/C1=C/C=C1\CCC[C@]2(C)C([C@H](C)CCCC(C)(C)O)CC[C@@H]12 (stereo partly specified)
[11] O=[N+]([O-])c1ccc(CSc2ncnc3c2ncn3C2OC(CO)C(O)C2O)cc1 (stereo unspecified)
[12] Nc1cc(N2CCCCC2)nc(N)[n+]1OS(=O)(=O)[O-]
[13] CC(C)C[C@@H](/C=C/S(C)(=O)=O)NC(=O)[C@H](CC(C)C)NC(=O)[C@H](CC(C)C)NC(=O)OCc1ccccc1
[14] Nc1ncnc2c1ncn2[C@@H]1O[C@H](COP(=O)(O)OP(=O)(O)CP(=O)(O)O)[C@@H](O)[C@H]1O
[15] CS(=O)(=O)Nc1c(O)ccc2c1CCCC2C1=NCCN1 (stereo unspecified)
[16] Nc1ncnc2c1ncn2[C@@H]1O[C@H](COP(=O)(O)OP(=O)(O)OC[C@H]2OC(O)[C@H](O)[C@@H]2O)[C@@H](O)[C@H]1O (stereo partly specified)

screen / no. | 9 | 10 | 11 | 12 | 13 | 14 | 15 | 16
Menin-MLL FL inh | nt | nt | nt | nt | nt | nt | nt | nt
Sfp inh | 11% | 4%&18% | 6% | -3%&-6% | 26% | 1% | 5% | 16%

[17] CSc1nc(N)c2ncn([C@@H]3O[C@H](COP(=O)(O)OP(=O)(O)OP(=O)(O)O)[C@@H](O)[C@H]3O)c2n1
[18] CC(C)c1cnc(NC(=O)Cc2ccccc2)s1
[19] C[C@H](NC(=O)CNC(=O)[C@@H](NC(=O)[C@H](Cc1ccccc1)NC(=O)CNC(=O)CNC(=O)[C@@H](N)Cc1ccccc1)[C@@H](C)O)C(=O)N[C@@H](CCCN=C(N)N)C(=O)N[C@@H](CCCCN)C(=O)N[C@@H](CO)C(=O)N[C@@H](C)C(=O)N[C@@H](CCCN=C(N)N)C(=O)N[C@H](CN)CCCCN
[20] [C-]#[N+]c1cc(-c2ccncc2)c(C)[nH]c1=O
[21] O=C(NCCCN1CCCCCC1)C(c1ccccc1)C1CCCCC1 (stereo unspecified)
[22] N[C@@]1(C(=O)O)CN[C@@H](C(=O)O)C1
[23] C[C@@H](N)CCCP(=O)(O)O
[24] N[C@@H](C(=O)O)[C@@H](CC(=O)O)c1ccc(Cl)cc1

screen / no. | 17 | 18 | 19 | 20 | 21 | 22 | 23 | 24
Menin-MLL FL inh | nt | nt | nt | nt | nt | nt | nt | nt
Sfp inh | -16% | 27% | 17% | -2% | 0% | 22µM* | -18% | -4%

[25] NC(N)=NCCC[C@H](NC(=O)[C@@H](N)Cc1ccc(O)cc1)C(=O)O
[26] COc1cc(O)c(C(=O)c2ccccc2)cc1O
[27] NC(=NCc1ccc(Cl)cc1Cl)NC(=O)c1nc(Cl)c(N)nc1N
[28] OC[C@H]1O[C@@H](n2cnc3c(NCCc4ccccc4)ncnc32)[C@H](O)[C@H]1O
[29] N[C@@H](CCCC(=O)O)C(=O)O
[30] CCCCS(=N)(=O)CC[C@H](N)C(=O)O (stereo partly specified)
[31] Cc1ccc2c(c1)C(N1CCN(C)CC1)=Nc1cccnc1N2
[32] CC(C)C[C@H](NC(=O)C1OC1C(=O)O)C(=O)NCCCCN=C(N)N (stereo partly specified)

screen / no. | 25 | 26 | 27 | 28 | 29 | 30 | 31 | 32
Menin-MLL FL inh | nt | nt | nt | 3.0 | 0.9 | 0.5 | 3.7 | 4.7
Sfp inh | 7% | 11µM* | 25µM* | nt | nt | nt | nt | nt

[33] CC1C(=O)N(C)C(=O)c2nc[nH]c21 (stereo unspecified)
[34] COc1cc([C@@H]2c3cc4c(cc3[C@H](O)C3COC(=O)[C@@H]32)OCO4)cc(OC)c1OC (stereo partly specified)
[35] COc1ccc2c(c1)c(CC(=O)O)c(C)n2Cc1ccc(F)cc1
[36] CC(C)CN(C)c1nc(N)c(C(=O)N=C(N)N)nc1Cl
[37] CC(C)=CCC/C(C)=C/CC/C(C)=C/CSc1ccccc1C(=O)O
[38] CC[C@@H](C)[C@H]1O[C@]2(CC[C@@H]1C)C[C@@H]1C[C@@H](C/C=C(\C)[C@@H](O[C@H]3C[C@H](OC)[C@@H](O[C@H]4C[C@H](OC)[C@@H](O)[C@H](C)O4)[C@H](C)O3)[C@@H](C)/C=C/C=C3\CO[C@@H]4[C@H](O)C(C)=C[C@@H](C(=O)O1)[C@]34O)O2
[39] CC(=O)/C(C)=N/O
[40] CN(C)c1cc2c(Nc3ccc4c(cnn4Cc4ccccc4)c3)ncnc2cn1

screen / no. | 33 | 34 | 35 | 36 | 37 | 38 | 39 | 40
Menin-MLL FL inh | -2.4 | 0.6 | 4.2 | -1.4 | -1.8 | -8.1 | 1.4 | ?
Sfp inh | nt | nt | nt | nt | nt | nt | nt | nt

[41] N=C1Sc2ccccc2C2=NCCCN12
[42] O=C(O)CC[C@H](NC(=O)c1ccccc1C(=O)O)C(=O)O
[43] O=C(O)C1CN(CCCP(=O)(O)O)CCN1 (stereo unspecified)
[44] Nc1nc(Cl)nc2c1ncn2[C@@H]1O[C@H](COP(=O)(O)OP(=O)(O)OP(=O)(O)O)[C@H](O)[C@H]1O
[45] Nc1ncnc2c1nc(Br)n2C1O[C@H]2COP(=O)(O)O[C@@H]2C1O (stereo partly specified)
[46] CSC(N)=NCCC[C@H](N)C(=O)O
[47] N=C(N)SCCc1ccc(CCSC(=N)N)cc1
[48] CN1CCc2cc(Cl)c(O)cc2C(c2ccccc2)C1 (stereo unspecified)

screen / no. | 41 | 42 | 43 | 44 | 45 | 46 | 47 | 48
Menin-MLL FL inh | -11 | 4.0 | 0.3 | -0.1 | 3.1 | 2.9 | 4.8 | 1.6
Sfp inh | nt | nt | nt | nt | nt | nt | nt | nt

[49] COc1cc2c(cc1O)CCC1C2CC[C@]2(C)[C@@H](O)CC[C@@H]12 (stereo partly specified)
[50] NCCCCCCCCCCN
[51] CN1CCc2c(cc(O)c(O)c2Cl)C(c2cccc(Cl)c2)C1 (stereo unspecified)
[52] NCC1OC(O[C@@H]2[C@H](O)[C@@H](OC3C(O)C(N)CC(N)C3OC3OC(CO)C(O)C(O)C3N)O[C@@H]2CO)C(N)C(O)C1O (stereo partly specified)
[53] CC(=O)[C@@]1(O)CC[C@H]2C3CCC4=CC(=O)CC[C@]4(C)C3CC[C@@]21C (stereo partly specified)
[54] CC(=O)N[C@H](C(=O)O)C(C)(C)SN=O
[55] NO
[56] CCCCCCCCCCCCCCCCCC(=O)OC(CC(=O)O)C[N+](C)(C)C (stereo unspecified)

screen / no. | 49 | 50 | 51 | 52 | 53 | 54 | 55 | 56
Menin-MLL FL inh | 6.0 | 5.1 | 1.3 | 4.0 | 9.1 | -0.1 | 1.1 | -5.5
Sfp inh | nt | nt | nt | nt | nt | nt | nt | nt

[57] N[C@@H](CCC(=O)N[C@H](CSN=O)C(=O)NCC(=O)O)C(=O)O
[58] NCCC[C@@H](CC(=O)N[C@@H]1CCCC[C@H]1C(=O)N[C@H](CC(=O)N[C@@H](CCC(=O)O)CC(=O)O)Cc1ccccc1)NC(=O)C[C@H](Cc1c[nH]c2ccccc12)NC(=O)[C@@H]1CCCC[C@H]1N
[59] Cc1ccccc1C1CC(=O)Oc2ccc(O)cc21 (stereo unspecified)
[60] COc1ccc(-c2nc3cncnc3n(-c3ccccc3)c2=O)cc1
[61] N#Cc1c(-c2ccccc2)no[n+]1[O-]
[62] Cc1noc(C)c1-c1cncnc1NCCN1CCOCC1
[63] COc1ccccc1CCn1c(=O)c(-c2ccccc2)nc2cncnc21
[64] COc1ccc(C(=O)N2CCC3(CCN(C(=O)Nc4cccc(F)c4)CC3)CC2)cc1

screen / no. | 57 | 58 | 59 | 60 | 61 | 62 | 63 | 64
Menin-MLL FL inh | -1.8 | -2.1 | 5.0[94.6 µM] | 9.5 | 4.3 | -4.1 | 0.6 | -2.9
Sfp inh | nt | 0% | 126µM* | -2% | 4% | -20% | 2% | 0%

[65] COC(=O)c1ccc(CN2[C@@H]3C[C@@H](O)CC[C@@H]3C[C@H]2C(=O)OC)cc1
[66] NCC(=O)N[C@@H](CCCN=C(N)N)C(=O)NCC(=O)N[C@@H](CC(=O)O)C(=O)N[C@@H](CO)C(=O)N1CCC[C@H]1C(=O)O
[67] CO[C@H]1COC(=O)CCC[C@@H](C)[C@H](OC)COC(=O)[C@@H](C)NC(=O)C/C=C\[C@@H]1C
[68] CN(C)c1ccc(O)c2c1C[C@H]1C[C@H]3[C@@H](N(C)C)C(=O)C(C(N)=O)=C(O)[C@]3(O)C(=O)C1=C2O
[69] C[C@@]1(C2CCCC2)Cc2cc(OCC(=O)O)c(Cl)c(Cl)c2C1=O
[70] O=C(N/N=C/c1c(Nc2cccc(C(F)(F)F)c2)nc2ccccn2c1=O)c1ccccc1
[71] COc1ccccc1-c1cc(Nc2ccn[nH]2)ncn1
[72] NCCCC[C@H](NC(=O)CNC(=O)[C@@H]1CCCN1C(=O)[C@H](Cc1ccc(O)cc1)NC(=O)CN)C(=O)N[C@@H](Cc1ccccc1)C(=O)O

screen / no. | 65 | 66 | 67 | 68 | 69 | 70 | 71 | 72
Menin-MLL FL inh | -6.1 | 1.2 | 0.4[11.7 µM] | 1.0[24.8 µM] | 1.6 | -0.1 | 1.8 | -5.0
Sfp inh | 2% | 25% | 12% | 14% | 17%&32% | -1% | 7% | 4%

[73] CCC1(C)CC(=O)NC1=O (stereo unspecified)
[74] O=C1[C@H]2[C@H]3[C@H](O)[C@H](O)C/C(=N/OC[C@@H](O)COCc4ccco4)[C@@H]3CC[C@@H]2C(=O)N1C[C@@H]1CCCO1
[75] COC(=O)N1CCN(/[N+]([O-])=N/Oc2ccc([N+](=O)[O-])cc2[N+](=O)[O-])CC1
[76] COc1ncc2nc(-c3ccc(F)cc3)c(=O)n(CCc3ccccc3)c2n1
[77] COc1cccc(C2=Nn3c(nnc3-c3cc(OC)ccc3OC)SC2)c1
[78] COc1ccc(-c2nnc3n2N=C(c2cc(OC)ccc2OC)CS3)c(OC)c1
[79] OCCN1CCN(CC/C=C2\c3ccccc3Sc3ccc(C(F)(F)F)cc32)CC1
[80] FC(F)(F)c1ccccc1-c1nc(NC2CCNCC2)c2ccccc2n1

screen / no. | 73 | 74 | 75 | 76 | 77 | 78 | 79 | 80
Menin-MLL FL inh | -8.5&-2.9 | -3.7[11.7 µM] | -1.6 | -3.2 | 0.3 | 7.6 | -7.6[24.8 µM] | 1.0
Sfp inh | 5% | 1% | -9% | 11% | -16% | 2% | -7% | 8%

Structural class, the compounds so far with a CF3 group (3)
[70] O=C(N/N=C/c1c(Nc2cccc(C(F)(F)F)c2)nc2ccccn2c1=O)c1ccccc1
[79] OCCN1CCN(CC/C=C2\c3ccccc3Sc3ccc(C(F)(F)F)cc32)CC1
[80] FC(F)(F)c1ccccc1-c1nc(NC2CCNCC2)c2ccccc2n1

screen / no. | 70 | 79 | 80
Menin-MLL FL inh | -0.1 | -7.6[24.8 µM] | 1.0
Sfp inh | -1% | -7% | 8%

Remaining list, next part
[81] O=c1c(-c2ccc(Cl)cc2)nc2cnc(N3CCOCC3)nc2n1C1CC1
[82] N#C[C@H](Cc1ccc(O)cc1)c1ccc(O)cc1
[83] COc1ccc(Oc2ncc3nc(-c4cc(F)cc(F)c4)c(=O)n(C[C@H]4CCCO4)c3n2)cc1
[84] COc1ccc(-c2c(O)c3cc(O)cc(O)c3oc2=O)cc1

screen / no. | 81 | 82 | 83 | 84
Menin-MLL FL inh | 0.6 | ? | 8.5 | 4.9
Sfp inh | 12% | 20% | -13% | 13%
